GIRK2 act – activators of human GIRK2 potassium channels | hit rate 0.05% among 63,000 | P48051 | calls only for hits at 25 µM | HEK293-GIRK2 thallium flux, Thallos fluorescence | AID 1259325;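 active = among the strongest 0.2% of first-round signals and kept after retests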;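 also: first round at about 10 µM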
Target sequence (P48051 whole entry, looked up): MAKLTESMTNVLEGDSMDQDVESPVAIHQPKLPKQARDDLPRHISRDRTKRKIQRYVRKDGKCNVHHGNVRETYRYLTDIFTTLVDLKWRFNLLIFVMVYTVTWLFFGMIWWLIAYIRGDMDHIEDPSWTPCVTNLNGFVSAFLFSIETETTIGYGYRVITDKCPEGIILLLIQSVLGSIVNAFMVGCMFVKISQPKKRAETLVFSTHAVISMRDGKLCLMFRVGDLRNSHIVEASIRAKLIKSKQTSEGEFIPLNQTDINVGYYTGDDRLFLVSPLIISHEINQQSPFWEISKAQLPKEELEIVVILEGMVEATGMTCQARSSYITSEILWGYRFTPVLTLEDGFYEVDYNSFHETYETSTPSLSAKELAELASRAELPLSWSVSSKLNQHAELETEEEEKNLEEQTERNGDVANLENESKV
Calls only; i = inactive. This is a subset. The share of hits here may be higher or lower than overall.

Preview, 5 compounds:
SMILES | GIRK2 act
COc1ccc(Cl)cc1NC(=O)CSc1nccc(N2CCCCC2)n1 | i
CCOc1c(C)cc(S(=O)(=O)NCC(C)(O)Cc2ccc(OC)cc2)cc1C (centres undefined) | i
COc1cc(-c2noc(C3CCCN(S(=O)(=O)c4cccs4)C3)n2)cc(OC)c1OC (centres undefined) | i
CC(C)Sc1ccc(CC(=O)N2CC(c3nc(-c4cccs4)no3)C2)cc1 | i
CCCNC(=O)CSc1ncccc1C(=O)O | i

All compounds of this part, previewed entries included:
SMILES | GIRK2 act
COc1ccc(Cl)cc1NC(=O)CSc1nccc(N2CCCCC2)n1 | i
CCOc1c(C)cc(S(=O)(=O)NCC(C)(O)Cc2ccc(OC)cc2)cc1C (centres undefined) | i
COc1cc(-c2noc(C3CCCN(S(=O)(=O)c4cccs4)C3)n2)cc(OC)c1OC (centres undefined) | i
CC(C)Sc1ccc(CC(=O)N2CC(c3nc(-c4cccs4)no3)C2)cc1 | i
CCCNC(=O)CSc1ncccc1C(=O)O | i
Cc1nc(SCc2ccccc2F)[nH]c(=O)c1CC(=O)N1CCN(c2ccccc2F)CC1 | i
COc1ccc(S(=O)(=O)N2CCCCC2CCNC(=O)C(=O)Nc2cccc(F)c2)cc1 (centres undefined) | i
COC(=O)c1ccc(N/C=C(/C#N)S(=O)(=O)c2ccc(Cl)cc2)cc1 | i
COc1ccc(-c2c(C)oc3cc(O)cc(O)c3c2=O)cc1OC | i
Nc1c(C(=O)c2ccc(-c3cccnc3)cc2)cnn1-c1ccc(F)cc1 | i
COc1ccccc1-c1ccc(=O)n(CC(=O)Nc2cc(N3CCC(C)CC3)ncn2)n1 | i
O=C(NCc1ccc(F)cc1)Nc1nnc(-c2ccccc2Cl)o1 | i
O=C(NCC(c1cccs1)N1CCOCC1)C(=O)Nc1ccc2c(c1)OCO2 (centres undefined) | i
CCc1nnc(NC(=O)c2cc(-c3cccc(C(F)(F)F)c3)oc2C)s1 | i
Cc1cc2oc3c(c(=O)c2cc1C)C(c1ccc(Cl)c(Cl)c1)N(CCN(C)C)C3=O (centres undefined) | i
O=C(NCC(O)c1ccc2c(c1)CCO2)C(=O)NC1CC1 (centres undefined) | i
COc1cccc(C(=O)Nc2nnc(-c3ccccc3SC)o2)c1OC | i
Cc1ccc(C)c(N2CCN(C(=O)c3ccccc3Br)CC2)c1 | i
COC(=O)c1ccc(N/C=C(\C#N)c2nc(-c3ccc(C)cc3C)cs2)cc1 | i
Cc1cccc(NC(=O)CSc2nc3nc(N4CCC(C)CC4)sc3c(=O)n2C(C)C)c1 | i
O=C(NCC1CCN(Cc2ccccc2)CC1)C(=O)NC1CCCCC1 | i
Cc1cccc(-n2ncc3c(=O)n(CC(=O)N4CCc5ccccc54)cnc32)c1C | i
O=C(c1ccc([N+](=O)[O-])cc1)N(C(=O)N1CCCCC1)c1ccc(Cl)cc1 | i
Cc1noc(-c2ccc(=O)n(Cc3c(C)noc3C)c2)n1 | i
O=C(NCC1(O)CCOc2ccccc21)Nc1cccs1 (centres undefined) | i
Continuation:
SMILES | GIRK2 act
O=C(CCSc1ccccc1)N1CCN(C(=O)C2CC2c2ccccc2)CC1 (centres undefined) | i
Cc1cc(C(=O)N2CCC(Oc3nc4c(Cl)cccc4s3)CC2)c(C)o1 | i
Cc1c(C)c2ccc(NC(=O)c3cnc4ccccc4n3)cc2[nH]c1=O | i
Cc1nc2ccc(NC(=O)Cc3ccc(F)cc3)cc2c(=O)n1-c1ccccc1 | i
COC(=O)c1ccc(CSc2nccc3c(OC)cccc23)o1 | i
COC(=O)CC1=CC(=O)N(CC(=O)NCc2ccccc2Cl)c2cc(C)c(C)cc2N1 | i
CCOC(=O)N1CCC(NC(=O)c2nnn(-c3ccccc3)c2-c2ccccn2)CC1 | i
Cc1ccc(NC(=O)Cn2cccc(-c3nc(-c4ccc(Br)cc4)no3)c2=O)c(C)c1 | i
Cn1nc(C(=O)N2CCN(C(=O)c3ccco3)CC2)ccc1=O | i
CCOc1cc(S(=O)(=O)N2CCCC2)ccc1F | i
Cc1ccc(N2CC(C(=O)N3CCC(S(C)(=O)=O)CC3)CC2=O)cc1C (centres undefined) | i
O=C(CCn1ccc(=O)[nH]c1=O)Nc1ccc2c(c1)CCC(=O)N2 | i
O=C(c1cnn2c1OCCC2)N1CCN(c2ccccn2)CC1 | i
COC(=O)c1ccc2c(=O)n(Cc3cccc(Br)c3)c(=S)[nH]c2c1 | i
CC(C)(C)OC(=O)N1CCNC(=O)C1CC(=O)OCCOc1ccccc1 (centres undefined) | i
Cc1ccc(=O)n(CC(=O)N2CCN(C/C=C/c3ccccc3)CC2)n1 | i
Cc1nn(C2CCS(=O)(=O)C2)c(C)c1N1CCN(C(=O)C(C)Oc2ccccc2)CC1 (centres undefined) | i
COc1ccccc1CCNC(=O)CC1CCCCN1S(=O)(=O)c1ccccc1 (centres undefined) | i
COc1cc(NC(=O)CCCCCn2nnc3ccccc3c2=O)cc(OC)c1 | i
CCCc1cc(C(=O)OCC(=O)c2ccccc2)c2ccccc2n1 | i
O=C1NC(=N[C@H](CO)Cc2ccccc2)S/C1=C\c1ccc2ncccc2c1 | i
Cc1ccc(-c2ccc3nnc(CCC(=O)NCCc4ccccc4)n3n2)cc1 | i
O=C(Nc1ccccc1-c1ccc(=O)[nH]n1)c1cnccn1 | i
Cc1ccccc1NC(=O)Cn1ccn2nc3c(c2c1=O)CCCC3 | i
COc1nn(C)cc1C(=O)Nc1ccc(Cl)c(N2CCCS2(=O)=O)c1 | i
Later entries:
SMILES | GIRK2 act
CC(O)CN1CCN(S(=O)(=O)c2ccc(F)cc2)CC1 (centres undefined) | i
Cc1cn2c3c(=O)n(C)c(=O)n(C)c3nc2n1-c1ccccc1OC/C=C/c1ccccc1 | i
CCCCCn1c(=S)[nH]c2cc(C(=O)NCCc3ccc(Cl)cc3)ccc2c1=O | i
C#CCCNS(=O)(=O)C(C)C | i
O=C(Cn1c(=O)[nH]c2c(oc3ccccc32)c1=O)Nc1ccccc1 | i
Cc1ccc(NC(=O)Nc2cnc(N3CCN(c4ccccn4)CC3)nc2)cc1Cl | i
CC1=C(C(=O)OC(C)C)C(c2ccc(N(C)C)cc2)NC(=O)N1 (centres undefined) | i
O=C(CN1CC(c2nc(C3CC3)no2)C1)c1ccccc1 | i
Cn1c(SCc2nc(-c3ccccc3)no2)nc2cc3c(cc2c1=O)OCO3 | i
COc1cc(-c2nc(Cn3nnc(C(=O)Nc4cccc(C)c4C)c3N)c(C)o2)cc(OC)c1OC | i
O=C(NC1CCCCC1)C1CCCN(c2ccc(-n3cccn3)nn2)C1 (centres undefined) | i
Cc1ccc(Cl)cc1-n1nnc(C(=O)NCc2cccnc2)c1C | i
O=C(C1CC(=O)N(c2ccc(Cl)cc2)C1)N1CCC(CSc2ccccn2)CC1 (centres undefined) | i
O=C(c1ccc2ncsc2c1)N(CCN1CCOCC1)c1nc2c(Cl)cccc2s1 | i
CN1C(=O)C(C)(C)COc2ccc(NC(=O)Nc3ccc4c(c3)OCO4)cc21 | i
C=CC(C)(C)OCC(O)CN1CCOCC1 (centres undefined) | i
NC(=O)c1ccc(Oc2nccc(-c3c(-c4ccc(F)cc4)ncn3C3CCNCC3)n2)cc1 | i
O=C(Nc1ccc(OC(F)(F)F)cc1)c1ccc2nccnc2c1 | i
O=C(c1cc(-c2ccc(F)cc2)c[nH]1)N1CCN(C(=O)c2ccco2)CC1 | i
CCOc1ccc(-c2ccc(N3CCN(C(=O)c4c(OC)cccc4OC)CC3)nn2)cc1 | i
CC(C)(c1ccccc1)c1ccc(OCC(=O)N2CCOCC2)cc1 | i
Cn1ccnc1SCC1CCN(C(=O)Cc2cccs2)CC1 | i
O=C1/C(=C/c2cccc(Br)c2)Oc2cc(O)ccc21 | i
Cc1nccn1-c1cc(N2CCN(C(=O)C(c3ccccc3)c3ccccc3)CC2)ncn1 | i
CC(CCc1ccccc1)NC(=O)CCn1c(=O)[nH]c2ccccc2c1=O (centres undefined) | i

Reprinted at random: seven records from the list.
SMILES | GIRK2 act
Cc1ccc(NC(=O)Nc2cnc(N3CCN(c4ccccn4)CC3)nc2)cc1Cl | i
Cn1ccnc1SCC1CCN(C(=O)Cc2cccs2)CC1 | i
Cn1c(SCc2nc(-c3ccccc3)no2)nc2cc3c(cc2c1=O)OCO3 | i
CCOc1ccc(-c2ccc(N3CCN(C(=O)c4c(OC)cccc4OC)CC3)nn2)cc1 | i
CC(O)CN1CCN(S(=O)(=O)c2ccc(F)cc2)CC1 (centres undefined) | i
Cc1nccn1-c1cc(N2CCN(C(=O)C(c3ccccc3)c3ccccc3)CC2)ncn1 | i
COc1cc(-c2nc(Cn3nnc(C(=O)Nc4cccc(C)c4C)c3N)c(C)o2)cc(OC)c1OC | i

Other compounds follow.
SMILES | GIRK2 act
CCn1c(=O)c2c(nc3n(-c4ccc(C(F)(F)F)cc4)c(C)cn23)n(C)c1=O | i
Cc1ccc(NC(=O)Cn2c(-c3nc(C4CC4)no3)cccc2=O)c(Cl)c1 | i
CCc1cccc(OCC(=O)Nc2nc(-c3ccc4c(c3)N(C)C(=O)CO4)c(C)s2)c1 | i
Cc1cc(C)nc(Nc2nc(C(=O)N3CCC(C(N)=O)CC3)cs2)n1 | i
CC(=O)N1CCc2c(sc(NC(=O)CSc3ccc(F)cc3)c2-c2nc3ccccc3s2)C1 | i
O=C(Cc1ccc(F)cc1)NC1CCN(C(=O)c2cn(-c3cccc(F)c3)nn2)CC1 | i
CCOc1ccc(N(C)S(=O)(=O)c2ccsc2C(=O)Nc2ccc(OC)cc2)cc1 | i
COc1ccc(C(=O)Nc2oc3ccccc3c(=O)c2-c2ccc(OC)c(OC)c2)cc1 | i
O=C(COc1ccc(Cl)cc1)Nc1cnc(N2CCOCC2)nc1 | i
COc1ccc(CCNC(=O)CSc2ncnc3sc(C)cc23)cc1OC | i
Cc1cc(=O)n2c(CCNC(=O)c3ccc(Br)o3)csc2n1 | i
COc1ccc(-c2nnc(Cc3nc(-c4cc(OC)cc(OC)c4)no3)o2)cc1 | i
COc1ccc(NC(=O)Cn2nc(N3CCSCC3)c3ccccc3c2=O)cc1OC | i
COc1ccc(OC)c(CNC(=O)Cc2nnc(-c3cccc(Br)c3)o2)c1 | i
CC(=O)N1CCC(CSc2nc(C)cs2)CC1 | i
Cc1noc(C)c1CN1CCN(C(=O)Cn2c(=O)oc3ccccc32)CC1 | i
CNC(=O)C1CCCN(c2nc3ncn(CC(=O)Nc4ccccc4F)c(=O)c3s2)C1 (centres undefined) | i
COc1ccc(CNC(=O)Nc2ccc(-n3nnn(C)c3=O)cc2)cc1OC | i
CCOc1ccc(-c2nc(Cn3nnc(C(=O)Nc4ccccc4C)c3C)c(C)o2)cc1 | i
NC(=O)c1ccc(NC(=O)CSC2=Nc3ccccc3N=C(c3ccccn3)C2)cc1 | i
O=C(Nc1ccc(Cl)cc1)c1nc(-c2cn(-c3ccc(F)cc3)nn2)no1 | i
COCCCn1c(C(=O)N(Cc2ccccc2)Cc2ccccc2)cc2c(=O)n3ccccc3nc21 | i
C#CCOCC1CCN(C(=O)Nc2cccc(OC)c2OC)CC1 | i
O=C(NCCS(=O)(=O)N1CCN(C(=O)c2ccco2)CC1)c1ccc2c(c1)OCO2 | i
COc1cccc(NCCCn2c(C)cn3c4c(=O)[nH]c(=O)n(C)c4nc23)c1 | i

Shown field by field: 4 of the compounds above
> NC(=O)c1ccc(NC(=O)CSC2=Nc3ccccc3N=C(c3ccccn3)C2)cc1
  GIRK2 act: i

> O=C(Nc1ccc(Cl)cc1)c1nc(-c2cn(-c3ccc(F)cc3)nn2)no1
  GIRK2 act: i

> COCCCn1c(C(=O)N(Cc2ccccc2)Cc2ccccc2)cc2c(=O)n3ccccc3nc21
  GIRK2 act: i

> C#CCOCC1CCN(C(=O)Nc2cccc(OC)c2OC)CC1
  GIRK2 act: i

(further entries)
SMILES | GIRK2 act
COc1ccc(N2CCCn3c2nc2c3c(=O)n(Cc3ccccc3C)c(=O)n2C)cc1 | i
CC(=O)c1ccc(OCC(=O)NCc2sc3nc(-c4ccc(F)cc4)cn3c2C)cc1 | i
CCc1ccc(NC(=O)N2CCc3c(c(=O)c4cc(C)cc(C)c4n3C)C2)cc1 | i
COc1nn(C)cc1C(=O)Nc1nnc(SCC(=O)Nc2nc(C)cs2)s1 | i
COc1ccc(C(=O)NCCC(O)c2ccoc2)cc1 (centres undefined) | i
Cc1ccc(-n2ncc3c(=O)n(CC(=O)N4CCC(Cc5ccccc5)CC4)cnc32)c(C)c1 | i
COc1ccc(SCC2CCN(C(=O)c3ccccc3C(F)(F)F)CC2)cc1 | i
COc1cc(/C=C/C(=O)c2ccc(OC(=O)c3cccs3)cc2)cc(OC)c1OC | i
COc1ccc(C(=O)/C=C/c2ccc(Cl)cc2)c(OC)c1 | i
O=S(=O)(c1ccc(Cl)s1)N1CCC(N2CCC(O)C2)CC1 (centres undefined) | i
COc1cccc(CNC(=O)c2cn(-c3ccc(C)cc3)nn2)c1 | i
O=C1N(c2cccc([N+](=O)[O-])c2)C2CS(=O)(=O)CC2N1c1cccc(C(F)(F)F)c1 (centres undefined) | i
O=C(Nc1ccc2c(c1)C(=O)N1CCCCC1CCO2)c1ccc2nsnc2c1 (centres undefined) | i
O=C(CCn1cnc2c([nH]c3ccccc32)c1=O)N1CCN(c2ccccc2Cl)CC1 | i
Oc1cccc(-c2nc(N3CCOCC3)c3sccc3n2)c1 | i
CSc1ccc(CNC(=O)c2nnn(Cc3cccc(F)c3)c2-n2cccc2)cc1 | i
O=S(=O)(c1cccnc1)N1CCN(Cc2ccsc2)CC1 | i
Cc1ccc(-n2cc(C(=O)N3CCC(NC(=O)c4ccc(F)c(F)c4)CC3)nn2)cc1 | i
CC(=O)Nc1nc2c(s1)CN(CC(=O)Nc1ccc(C)c(Cl)c1)CC2 | i
CC(=O)Nc1nc2c(s1)CN(S(=O)(=O)c1cccnc1)CC2 | i
Cc1cc(C(=O)Nc2ccc(-n3nnn(CC(=O)NCc4ccco4)c3=O)cc2)c(C)o1 | i
CC(=O)O[C@@]1(C)C[C@@H](O)[C@]2(O)C=CO[C@@H](O[C@@H]3O[C@H](CO)[C@@H](O)[C@H](O)[C@H]3O)[C@@H]21 | i
COc1ccc(Br)c(C(=O)N2CCC(c3ccccc3)C2)c1 (centres undefined) | i
Cc1cc(=O)c2cc(C(=O)Nc3nc4ccc(F)cc4s3)ccc2[nH]1 | i
O=C(Nc1cc(-c2cccs2)nn1-c1nc(-c2ccccc2)cc(=O)[nH]1)c1cc2ccccc2o1 | i
Cc1cn2c3c(=O)n(CC(=O)OCc4ccccc4)c(=O)n(C)c3nc2n1C1CCCCC1 | i
